# Screening data as filed in PubChem.
# H5N1 CPE – MDCK cell protection from H5N1 avian flu; cytopathic effect, luminescence, 72 h; stronger effect = higher value; no value below 0 was filed and about half of the inactive calls have no number; reference of the scale not given here; inhibition, % at 50 µM; 0.07% of 96,000 active; AID 740, 2007; in the data active = inhibition above about 25%
# Starred values were filed as active, the others as inactive; i = inactive. Some of the compounds tested (hit frequency here may not be typical).
no.	compound	H5N1 CPE
1	Cc1cc(CC(C)C)n(-c2nc3ccccc3c(=O)n2OCC(=O)N(C)C)n1	1.8
2	CCc1[nH]c(C)c(C(C)=O)c1C	0.2
3	Cc1ccc(CC(=O)NCCS(=O)c2ccc(Cl)cc2)cc1 (stereo unspecified)	0.8
4	COc1ccc(CCn2nnnc2C(c2ccc(Cl)cc2)N2CCN(C)CC2)cc1OC (stereo unspecified)	i
5	CC(C)C(O)P(=O)(OCc1ccccc1)c1ccc(N(C)C)cc1 (stereo unspecified)	0.9
6	Cc1cccc(OCC(=O)N2CCN(C(=O)Cc3ccccc3)CC2)c1	2.6
7	CC(=O)c1c(N)c(C#N)c(C)n1-c1ccc(Br)cc1	2.0
8	CC1CCCCN1C(=O)C12CCC(C)(C(=O)C1)C2(C)C (stereo unspecified)	2.0
9	O=c1oc2ccccc2cc1-c1cn2cccnc2n1	2.5
10	O=C(c1ccc(F)cc1)N1CCC(N2CCCCCC2)CC1	0.5
11	Cn1cccc1CNC1CCCCC1	0.3
12	CCN(CC)CCCNC(=O)c1cc(-c2ccc(Cl)cc2)on1	i
13	CCOC(=O)N1CCN(S(=O)(=O)c2cccc3nonc23)CC1	0.6
14	CC(=O)Nc1ccc(-c2cn3cccnc3n2)cc1	i
15	COC(=O)c1sccc1OC(C)C(C)=O (stereo unspecified)	0.2

# In another format: results already given.
(3) Cc1ccc(CC(=O)NCCS(=O)c2ccc(Cl)cc2)cc1 (stereo unspecified)
  H5N1 CPE: 0.8
(4) COc1ccc(CCn2nnnc2C(c2ccc(Cl)cc2)N2CCN(C)CC2)cc1OC (stereo unspecified)
  H5N1 CPE: i
(5) CC(C)C(O)P(=O)(OCc1ccccc1)c1ccc(N(C)C)cc1 (stereo unspecified)
  H5N1 CPE: 0.9
(6) Cc1cccc(OCC(=O)N2CCN(C(=O)Cc3ccccc3)CC2)c1
  H5N1 CPE: 2.6

# Remaining list, next part.
no.	compound	H5N1 CPE
16	CC(C)(C)c1ccccc1OCCCCN1CCCC1	i
17	CCN1CCN(Cc2ccccc2C)CC1	0.8
18	CCOC(=O)CSC1=C(C#N)C(c2sccc2C)CC(=O)N1 (stereo unspecified)	0.1
19	O=C(Nc1cccc2c1CCCC2)c1ccc(Br)o1	i
20	COc1ccccc1NC(=O)CSc1nc(N)cc(N)n1	i
21	O=C1NC(=O)N(c2ccc3c(c2)OCO3)C(=O)/C1=C/c1ccc(N2CCCCC2)o1	2.5
22	O=C(N/N=C\c1cn(-c2ccccc2)nc1-c1ccccc1)c1ccc(Br)o1	4.0
23	Cc1nc2ncnn2c(C)c1CCC(=O)NC(C)c1ccc2c(c1)OCCO2 (stereo unspecified)	i
24	COc1ccc(CCNC(=O)CSc2nncn2N)cc1OC	0.9
25	Cc1ccc(C(=O)C(NC(=O)c2ccco2)N2CCOCC2)cc1 (stereo unspecified)	0.3
26	CC(C)(C)C1CCc2c(sc(NC(=O)C3CCCO3)c2C(N)=O)C1 (stereo unspecified)	i
27	COCCn1nnnc1CN1CCC(NC(=O)Nc2cccc(OC)c2)CC1	i
28	CCN(CC)CC#CCC(C)(c1ccccc1)c1ccccc1	i
29	O=C(NC(CO)c1ccccc1)c1ccco1 (stereo unspecified)	i
30	Cc1ccc2c(Cl)cc(Cl)c(OCC(=O)NCc3ccco3)c2n1	6.8
31	CSCC[C@H](NC(=O)OC(C)(C)C)c1nnc(SCC=C(C)C)o1	i
32	CC(C)COc1ccc(C(=O)OC2CC(C)(C)OCC2CN(C)C)cc1 (stereo unspecified)	i
33	COc1ccc(C(C)NC(=O)c2ccoc2C)cc1OC (stereo unspecified)	0.6
34	O=c1c2c3c(sc2nc2n1CCCS2)CCCC3	0.4
35	CCCc1nn(-c2cc(Cl)ccc2OC)c2c1C(=O)CCC2	0.8
36	CC(=O)c1cccc(NC(=O)NCc2cccs2)c1	0.0
37	Cc1ccc(S(=O)(=O)c2nc(NCCN(C)C)sc2Cl)cc1	i
38	CCCCn1c(SCC(=O)N2CCN(c3ccccc3)CC2)nc2ccsc2c1=O	2.8
39	CCOC(=O)C1=C(CC)Nc2ccccc2N=C1NC(=O)c1cccc(S(=O)(=O)N2CCCC2)c1	i
40	C=CCn1c(SCCOc2ccc(OC)cc2)nnc1C(C)NC(=O)c1ccc(OC)cc1 (stereo unspecified)	i
41	Cc1cccc(NC(=O)C2CC(=O)n3cnnc3S2)c1 (stereo unspecified)	0.7
42	OCCNCc1ccc(OC2CCCC2)cc1	1.2
43	O=C(C1CCCN(S(=O)(=O)c2ccc(F)cc2)C1)N(Cc1cccs1)C1CC1 (stereo unspecified)	0.1
44	O=C(O)c1cc(S(=O)(=O)N2CCCCC2)ccc1F	0.4
45	CC(C)OC(=O)C1C(=O)NC2(C)CC1c1ccccc1O2 (stereo unspecified)	1.8
46	COc1ccccc1N1C(=O)c2cccc3c(C(=O)O)ccc(c23)C1=O	i
47	Cn1c(=O)c2c(nc(NC3CCCCC3)n2CC(O)COc2ccccc2)n(C)c1=O (stereo unspecified)	1.6
48	N#Cc1nc(-c2cccs2)oc1N1CCOCC1	2.8
49	COC(=O)C1C(=O)NCC1c1ccc(OC)cc1 (stereo unspecified)	0.9
50	CCOCc1nnc(NC(=O)c2cc(Cl)ccc2OC)s1	0.9
51	CCCCN(CC)C(=O)Cc1ccccc1OC	0.5
52	COCCOC(=O)C1=C(C)N=C2SCCC(=O)N2C1/C=C/c1ccccc1 (stereo unspecified)	i
53	CCOC(=O)N1CCN(CC(O)c2ccc3cc[nH]c3c2)CC1 (stereo unspecified)	i
54	O=C(COC(=O)c1ccncc1)Nc1cc(Cl)c(Cl)cc1Cl	i
55	CCCN1Cc2cccc(C(=O)Nc3ccc4c(c3)OCCO4)c2C1=O	0.2
56	c1ccc(-c2oc3ncnc(N4CCOCC4)c3c2-c2ccccc2)cc1	1.1
57	CCCOc1ccccc1C1CC(=O)Nc2cc3c(cc21)OCCO3 (stereo unspecified)	2.3
58	COc1ccc2cc(S(=O)(=O)N3CCCCC3)ccc2c1S(=O)(=O)N1CCCCC1	1.6
59	CC1CCCCC1NC(=O)CSc1nnc(CN2CCOCC2)n1C (stereo unspecified)	i
60	COC(=O)c1c(C(=O)OC)c2cc(C)ccn2c1Cl	0.6
61	O=c1c2c(nc3n1CCCCC3)sc1c(O)cccc12	i
62	CCOc1ccc(NC(=O)CCN2CCN(c3ccccc3OC)CC2)cc1	0.0
63	N#Cc1cc(Oc2ccc3ccccc3c2)c(-n2nnc3ccccc32)cc1C#N	2.1
64	O=C(O)c1ncn(Cc2ccccc2)c1C(=O)O	0.6
65	NC(=O)c1cc2cc(Cl)ccc2oc1=O	i
66	CCc1ccc(CN2CCN(S(=O)(=O)Cc3ccccc3)CC2)cc1	i
67	O=C(c1cc(-c2ccco2)on1)N1CCc2ccccc2C1	i
68	O=c1c2c3c(sc2nc2sc(CN4CCCCC4)cn12)CCCC3	i
69	CN(C)CCCN1C(=O)C(=O)/C(=C(/O)c2ccncc2)C1c1cccnc1 (stereo unspecified)	i
70	C=CCn1c2ccccc2c2nnc(SCN3C(=O)c4ccccc4C3=O)nc21	i
71	Cc1oc(C)c2c(=O)ccc3c(c12)OC(N)=C(C#N)C3c1ccccc1Cl (stereo unspecified)	0.2
72	COc1ccccc1-n1c(SCC(N)=O)nnc1-c1ccc(S(=O)(=O)N2CCCCC2)cc1	3.7
73	CCOC(=O)Cc1cc(=O)[nH]c(/N=C(/NC(=O)c2ccccc2)Nc2ccccc2C(F)(F)F)n1	0.2
74	CCn1cc(C(=O)NCCCN2CC(C)CC(C)C2)c(=O)c2cc(S(=O)(=O)N(C)C)ccc21 (stereo unspecified)	0.8
75	COc1ccc(-n2nc(C(=O)NCC(=O)Nc3ccccn3)c3ccccc3c2=O)cc1Cl	i

# (listing goes on)
no.	compound	H5N1 CPE
76	CCN1C(=O)CC(Sc2ccccc2N)C1=O (stereo unspecified)	1.0
77	COc1ccccc1CNS(=O)(=O)c1ccc(C)cc1	5.2
78	COc1ccc(C(=O)NC(=S)NCc2ccc(-c3nc4ccccc4o3)cc2)cc1OC	i
79	CCc1c(C)sc(NC(=O)OC)c1C(N)=O	i
80	O=C(CNC(=O)c1ccco1)OCc1ccc(Cl)cc1	i
81	Cc1nc2sc(C(c3cccs3)N3CCC(C(N)=O)CC3)c(O)n2n1 (stereo unspecified)	i
82	O=c1[nH]c(=O)n(Cc2ccco2)c2c1C(C(F)(F)F)(C(F)(F)F)N=C(CCC1CCCCC1)N2	i
83	Cc1ccc(-c2cc(C(=O)N3CCCc4ccccc43)c3ccccc3n2)cc1	i
84	COCCOc1cc(-n2ccnc2SC)c(Cl)cc1Cl	0.8
85	CC(NC(=O)CC1Nc2ccccc2NC1=O)c1ccccc1 (stereo unspecified)	i
86	CN1CCN(CC(=O)N2c3ccccc3C(C)(c3ccc(Cl)cc3)CC2(C)C)CC1 (stereo unspecified)	i
87	O=C(CCNS(=O)(=O)c1cccs1)N1CCCCCC1	1.4
88	O=C(O)CNCC1COc2ccccc2O1 (stereo unspecified)	i
89	C/C(=N\NC(=O)C1CC1c1ccccc1)c1cccc([N+](=O)[O-])c1 (stereo unspecified)	2.0
90	CC(C)OC(=O)CSc1nnnn1-c1ccc2c(c1)OCCO2	0.1
91	Cc1cc(C)n(-c2nc3ccccc3nc2Nc2ccc3c(c2)OCO3)n1	i
92	COc1ccc(-c2nn(C)c(=O)c3ccccc23)cc1NC(=O)COc1ccc(C)cc1	0.9
93	Cc1nc([N+](=O)[O-])nn1C12CC3CC(CC(Br)(C3)C1)C2	1.4
94	CCOC(=O)Cn1c(=O)oc2cc(S(=O)(=O)NCCc3ccc(OCC)c(OCC)c3)ccc21	0.5
95	CC(=O)Nc1ccccc1C(=O)N1CC2(C)CC1CC(C)(C)C2 (stereo unspecified)	0.7
96	C/C(N)=C(/C#N)C(=O)CSc1nnc(COc2cc(C)ccc2C)o1	0.5
97	Cc1cc(C)c(S(=O)(=O)c2ccccc2)c(OC(=O)c2c(Cl)cccc2Cl)n1	i
98	COc1ccc(N2CCN(C(=O)CN=C3NS(=O)(=O)C(c4ccc(C)cc4)=C3C)CC2)cc1	i
99	CC(C(=O)N1c2ccc(F)cc2CCC1C)N1C(=O)c2ccccc2C1=O (stereo unspecified)	1.7
100	COc1ccc(C(=O)Nc2ccc(S(=O)(=O)Nc3onc(C)c3C)cc2)cc1	i
101	CC1CCCCN1CCNC(=O)Cn1nc(-c2ccccc2)ccc1=O (stereo unspecified)	0.0
102	Cc1nonc1NC(=O)OCCN1CCOC1=O	0.3
103	O=C(NC(=S)NNC(=O)c1cccs1)c1ccc(Br)o1	1.8
104	COc1ccc(NC(=O)CN2CCCCC2)cc1	i
105	CCSc1nc2c(c(=O)[nH]1)C(c1ccccn1)C1=C(CC(C)(C)CC1=O)N2 (stereo unspecified)	i

# Structures listed so far that contain a cyano group:
no.	compound	H5N1 CPE
7	CC(=O)c1c(N)c(C#N)c(C)n1-c1ccc(Br)cc1	2.0
18	CCOC(=O)CSC1=C(C#N)C(c2sccc2C)CC(=O)N1 (stereo unspecified)	0.1
48	N#Cc1nc(-c2cccs2)oc1N1CCOCC1	2.8
63	N#Cc1cc(Oc2ccc3ccccc3c2)c(-n2nnc3ccccc32)cc1C#N	2.1
71	Cc1oc(C)c2c(=O)ccc3c(c12)OC(N)=C(C#N)C3c1ccccc1Cl (stereo unspecified)	0.2
96	C/C(N)=C(/C#N)C(=O)CSc1nnc(COc2cc(C)ccc2C)o1	0.5

# More results
no.	compound	H5N1 CPE
106	CCn1c(=O)n(CC)c2cc(S(=O)(=O)Nc3cc(C)cc(C)c3C#N)ccc21	1.0
107	COc1ccc(-c2nnnn2CCc2ccccc2)cc1	1.2
108	CCC(=O)N1CCc2cc(S(=O)(=O)N(CC)c3cccc(C)c3)ccc21	0.5
109	COc1cccc(=O)c2c(C)n(-c3cc(C)cc(C)c3)c(C)c12	i
110	Cn1nc([N+](=O)[O-])nc1Sc1ccc(C(C)(C)C)cc1	9.6
111	CCCn1c(N2CCN(CC(=O)NCc3cccs3)CC2)nc2ccccc21	i
112	O/N=C1\CCCCc2ccccc21	i
113	O=C(Nc1ccccc1)N(Cc1ccc2c(c1)OCO2)Cc1nc2ccccc2c(=O)[nH]1	i
114	Cc1ccc(-c2nc3s/c(=C\c4ccco4)c(=O)n3n2)cc1	i
115	Cc1ccc2c(c1)CCCN2C(=O)c1cc2ccccc2oc1=O	1.5
116	COc1ccc(Br)cc1C(=O)Nc1cccc(NC(=O)c2ccco2)c1	4.0
117	CC(=O)c1cccc(NC(=O)CN(c2ccc(F)cc2)S(C)(=O)=O)c1	0.2
118	O=c1[nH]c(SCC2CCCCO2)nc2ccccc12 (stereo unspecified)	i
119	C=CCn1c(Cn2nnc3ccccc32)nnc1SCC(=O)N/N=C/c1cc(Br)cc(OC)c1O	2.0
120	COc1ccc(OC)c(NC(=O)CN2C(=O)C3(OCCCO3)c3ccccc32)c1	i
121	COC(=O)c1nc(NC(C)=O)n[nH]1	i
122	COc1ccc(C2=NOC(C(=O)NCCCN3CCOCC3)C2)cc1 (stereo unspecified)	1.5
123	COP(C)(=O)c1c(C)nn(-c2ccccc2)c1C (stereo unspecified)	0.5
124	CCc1ccc(NC(=O)C2CC(=O)N(C(C)C)C2)cc1 (stereo unspecified)	i
125	C=C(Br)Cn1c(CCCC)nc2ccccc21	i
126	Cn1c(=O)cc(NCCc2ccccc2)[nH]c1=O	i
127	CCC(NC(=O)NCc1cccnc1)(C(F)(F)F)C(F)(F)F	0.8
128	CC(=O)c1c(C(C)=O)c(C)n(-c2nc(-c3ccccc3)c(C)s2)c1C	0.1
129	O=C(NC1c2ccccc2-c2ccccc21)c1ccco1	i
130	CCCCN(CCCC)CCCNC(=O)C12CN(Cc3ccccc3)CC1C(c1cccc([N+](=O)[O-])c1)=NO2 (stereo unspecified)	i
131	COc1ccc(/C=N/NC(=O)c2cc(C)on2)c2ccccc12	1.4
132	COC(=O)Cn1c2ccccc2c2nc(C)sc21	1.2
133	CCC(C)NC(=O)c1c(N)n(/N=C/c2cccnc2)c2nc3ccccc3nc12 (stereo unspecified)	0.4
134	Cc1ccc(Cn2ccc(NC(=O)c3cc(C)on3)n2)cc1	0.2
